Bioassay records: PubChem BioAssay, National Center for Advancing Translational Sciences (NCATS)
miR-21 reporter: qHTS Assay for Modulators of miRNAs and/orActivators of miR-21; HeLa miR-21 FLuc reporter, luciferase, 48 h; Potency, µM (series often up to 38.3 µM), for the others: at the top dose reporter change, positive = more light; 340,000 tested, under 10 active; AID 2288, 2010; active = well fitted rising curve with a large enough effect; inconclusive = small, poorly fitted or top-dose-only effect; inactive = no such curve, though single readings can be large or run the other way;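 also: % of control where 0% means no effect; miR-21 action dims this reporter so a rising signal means less miR-21 action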
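HeLa cells endogenously expressing miR-21, stably carrying CMV-driven firefly luciferase with a downstream miR-21 binding site, 2000 cells/well. Titrations up to approximately 40 uM, 48 hours; luciferase luminescence read.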
GLA inh pH 4.5: qHTS Assay for Inhibitors of Human alpha-Galactosidase at pH 4.5. Alpha-galactosidase A (Homo sapiens), P06280. purified enzyme, 4-MU-alpha-Gal fluorescence, pH 4.5. activity change, negative = inhibition, % at 105 µM. 230,000 tested, under 10 active. AID 1467, 2008; inconclusive = small, poorly fitted or top-dose-only inhibition, or a rising curve; inactive = flat fitted curve, though single readings scatter; no compound was filed as active;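 also: 0% = full activity with enzyme and -100% = basal without enzyme; dose as in the result columns while the protocol names 77 µM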
Rango release inh: qHTS Assay for Inhibitors of RanGTP induced Rango (Ran-regulated importin-beta cargo) - Importin beta complex dissociation | Potency, µM (highest dose often 46.1 µM), for inactives: at the top dose activity change, negative = inhibition | Biochemical FRET Rango-importin beta, RanGTP-induced dissociation | 0.071% of 340,000 active | Snurportin-1 (Homo sapiens) + GTP-binding nuclear protein Ran (Homo sapiens) + Importin …; active means falling FRET ratio curve, often poorly fitted, with flat reads before Ran was added; inconclusive means other falling curves, or compound fluorescence or quenching; inactive means flat or rising ratio curve;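 also: potency is read from the fitted curve at half-maximal effect; % of control where 0% means no effect; nearly all actives have a fitted effect of over 45% in size; -100% = wells without RanGTP and RCC1; the record marks most hits as doubtful in a second field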
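Compounds preincubate 5 min with complex of recombinant Rango and importin beta in PBS with 1 mM DTT. Ran (0.6 uM) loaded with 2 mM GTP plus 0.2 uM RCC1 starts dissociation; FRET is recorded 45 min later.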
Rango-impB inh: qHTS Assay for Inhibitors of Rango (Ran-regulated importin-beta cargo) - Importin beta complex formation; Importin subunit beta-1 (Homo sapiens), Q14974; 0.031% of 340,000 active; Potency, µM (series often up to 92.2 µM), without a hit: at the top dose inhibition of complex formation; AID 540263, 2011; Rango CFP/YFP FRET sensor + importin beta, 45 min; active = rising FRET ratio curve, often small or poorly fitted; inconclusive = mostly compound fluorescence or quenching in the first reads; inactive = flat curves in all reads;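 also: potency is read from the fitted curve at half-maximal effect; 0% = DMSO wells and 100% = buffer wells lacking importin beta; nearly all actives have a fitted effect of over 15% in size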
Target sequence (Q14974 whole entry, looked up): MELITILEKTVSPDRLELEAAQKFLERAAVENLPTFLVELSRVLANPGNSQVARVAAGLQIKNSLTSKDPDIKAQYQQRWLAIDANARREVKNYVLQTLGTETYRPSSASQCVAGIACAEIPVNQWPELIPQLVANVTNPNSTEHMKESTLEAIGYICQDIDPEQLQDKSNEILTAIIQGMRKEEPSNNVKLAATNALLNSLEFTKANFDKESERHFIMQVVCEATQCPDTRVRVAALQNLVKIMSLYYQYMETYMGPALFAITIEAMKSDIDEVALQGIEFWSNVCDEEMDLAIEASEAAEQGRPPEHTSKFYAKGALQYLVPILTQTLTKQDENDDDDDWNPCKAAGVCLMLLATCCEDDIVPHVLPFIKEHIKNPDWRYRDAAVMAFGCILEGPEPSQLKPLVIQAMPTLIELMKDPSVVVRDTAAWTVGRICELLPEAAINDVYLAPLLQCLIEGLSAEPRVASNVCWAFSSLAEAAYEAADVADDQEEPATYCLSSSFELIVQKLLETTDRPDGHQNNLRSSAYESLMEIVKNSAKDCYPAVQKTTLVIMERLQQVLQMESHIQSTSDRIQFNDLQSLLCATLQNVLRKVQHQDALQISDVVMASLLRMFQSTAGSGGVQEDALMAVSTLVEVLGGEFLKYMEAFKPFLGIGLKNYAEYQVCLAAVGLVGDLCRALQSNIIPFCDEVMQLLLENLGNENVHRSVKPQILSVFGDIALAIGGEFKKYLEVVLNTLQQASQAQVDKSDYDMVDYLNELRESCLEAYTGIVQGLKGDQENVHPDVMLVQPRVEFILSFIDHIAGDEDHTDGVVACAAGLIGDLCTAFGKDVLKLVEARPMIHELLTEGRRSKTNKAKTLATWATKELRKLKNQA
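Inhibition scored from the CFP 486 nm/YFP 530 nm FRET ratio 45 min after adding 0.125 microM importin beta to 50 nM Rango biosensor preincubated 5 min with compound (room temperature, PBS with DTT, Tween-20, BSA). No-importin wells as positive control.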
Active calls of the source: *; ? = inconclusive; / = not tested or not shown; & = joins results of further samples; [ ] = another dose, or the depositor's remark. These rows are one share of the data, so the mix of outcomes need not match the whole.

SMILES	miR-21 reporter	GLA inh pH 4.5	Rango release inh	Rango-impB inh
COc1cccc(N2CCN(c3ccc([N+](=O)[O-])cn3)CC2)c1	-11%	/	-3%	-1.1%
O=C(Nc1ccnn1C1CCN(C(=O)c2ccc(C(F)(F)F)cc2)CC1)C1CC1	-5%	/	26%	0.1%
CC(C)(C)n1cnc2cc(NCc3ccc(Br)cc3)ccc21	-76%	/	17%	0.1%
O=S(Cc1ccc(Cl)cc1)c1ccccc1 (stereo not given)	/	/	-6%	4.1%
CC(=O)N1CCOc2ccc(S(=O)(=O)Nc3cccc(C)c3)cc21	11%	/	7%	4.9%
Cc1ccc(NC(=O)C2CCCN2C(=O)Oc2ccccc2)cc1 (stereo not given)	-4%	-3	11%	0.9%
O=C(CN1CCc2ccccc2C1)Nc1ccccc1Cl	-3%	/	43%	-0.4%
Cc1cccc(NS(=O)(=O)c2cc(C(=O)N3CCCC3)ccc2Cl)c1	-2%	2	-5%	-4.5%
CCOC(=O)c1c(-c2ccccc2)csc1N1C(=O)Nc2ccccc2N1O	0%	11	-9%	-0.3%
CCc1ccc(NC(=O)CSc2nc(=O)n(CCCN3CCOCC3)c3c2CCCC3)cc1	/	/	15%	0.8%
CN1C/C(=C/c2cccnc2)C(=O)/C(=C/c2cccnc2)C1	?	-1	-9%	0.7%
Cc1ccc(S(=O)(=O)NC(=O)N2CCCN(Cc3ccc(F)cc3)CC2)cc1	-6%	1	-14%	4.0%
CCN(Cc1ccccc1)Cc1ccc(OCc2ccccc2)c(OC)c1	-7%	/	-8%	-0.1%
CC(NC(=O)NC12CC3CC(CC(C3)C1)C2)c1ccc2c(c1)OCO2 (stereo not given)	1%	-3	-4%	0.9%
COc1cc(C(F)(F)F)nc2c(Br)c(C(C)(C)C)nn12	1%	-18	-1%	-3.1%
O=C(NCC(c1cccnc1)N1CCOCC1)c1cccs1 (stereo not given)	5%	0	1%	0.0%
Cc1cc(Cl)ccc1NC(=O)COC(=O)c1nc2nccc(C)n2n1	3%	-4	-6%	6.1%
CCn1c(C)c(C(C)=O)c(SC)nc1=S	2%	3	18%	0.2%
C=CC[C@@H](CC(=O)N[C@@H](CO)Cc1ccccc1)C(=O)N[C@@H](COC(=O)[C@H](CC=C)CC(=O)OC(C)(C)C)Cc1c[nH]c2ccccc12	/	/	0%	6.0%
CCN(CC)S(=O)(=O)c1ccc(C)c(NC(=O)COc2ccc3c(C)cc(=O)oc3c2)c1	-6%	-1	1%	1.6%
CCCCCCCC(=O)N/N=C/c1cccnc1	-1%	-6	6%	-5.3%
COc1cccc(-n2c(SCC(=O)Nc3cc(C)on3)nc3ccccc3c2=O)c1	-8%	-25	9%	-1.9%
COc1cc(OC)c(NC(=O)CCNC(=O)Cn2ccc3ccccc3c2=O)cc1Cl	-1%	-10	16%	0.0%
CC(C)CCNC(=O)CCn1nc(-c2ccccc2)ccc1=O	-5%	10	1%	-2.3%
CCOc1ccc(NC(=O)CN(C)C(=O)CCNC(=O)c2ccccc2Cl)cc1OCC	/	/	10%	0.0%
COc1ccccc1N1CCN(Cc2nc3ccsc3c(=O)[nH]2)CC1	-3%	-3	-10%	3.8%
CCCOc1cccc(C(=O)N(Cc2ccccc2)C2CCS(=O)(=O)C2)c1 (stereo not given)	0%	/	2%	0.9%
CSc1ccc(CCNS(=O)(=O)c2ccc3c(c2)C(C)(C)C(=O)N3C)cc1	0%&-5%	/	16%	1.1%
C[N+](C)(C)CCCC(=O)c1ccc2c(c1)OCO2	-5%	/	17%	7.3%
CSc1nc(C)c(Cl)c(C)c1C#N	-1%	-2	0%	3.8%
COc1ccc(-c2n[nH]c(=S)n2Cc2ccccc2)cc1OC	-14%	/	3%	-2.4%
Cc1cc(C)cc(OCC(=O)OCC(=O)Nc2ccc(Cl)cn2)c1	1%	6	22%	4.7%
CN(Cc1ccccc1)C(=O)c1cn(C)c2ccc(S(=O)(=O)N3CCCC3)cc2c1=O	-1%	/	-7%	-4.8%
O=C(OC(C(=O)NC1CCCC1)c1ccncc1)C1=Cc2ccccc2OC1 (stereo not given)	-4%	6	-6%	-6.1%
O=C(O)c1cccc(NC(=S)NC(NC(=O)c2ccccc2[N+](=O)[O-])C(Cl)(Cl)Cl)c1 (stereo not given)	-4%	2	10%	-2.9%
CCCCCC(C)NC(=O)CN1C(=O)NC(C)(c2ccc3ccccc3c2)C1=O (stereo not given)	-16%	/	-4%	-3.7%

Another view of some results above.
Results follow in this order: miR-21 reporter | GLA inh pH 4.5 | Rango release inh | Rango-impB inh
Cc1cccc(NS(=O)(=O)c2cc(C(=O)N3CCCC3)ccc2Cl)c1
    -2% | 2 | -5% | -4.5%
O=S(Cc1ccc(Cl)cc1)c1ccccc1 (stereo not given)
    / | / | -6% | 4.1%
CN1C/C(=C/c2cccnc2)C(=O)/C(=C/c2cccnc2)C1
    ? | -1 | -9% | 0.7%
COc1cccc(-n2c(SCC(=O)Nc3cc(C)on3)nc3ccccc3c2=O)c1
    -8% | -25 | 9% | -1.9%
COc1ccccc1N1CCN(Cc2nc3ccsc3c(=O)[nH]2)CC1
    -3% | -3 | -10% | 3.8%

(further entries)
SMILES	miR-21 reporter	GLA inh pH 4.5	Rango release inh	Rango-impB inh
COC(=O)[C@H](C)NC(=O)NCCC1=CCCCC1	-7%	-7	-3%	-1.0%
CCCC(=O)Oc1cccc(C2NC(=O)c3ccccc3O2)c1 (stereo not given)	-9%	/	-11%	0.3%
Cc1ncoc1C(=O)N1CCCC(N2CCN(c3cccc(C(F)(F)F)c3)CC2)C1 (stereo not given)	0%	/	?	-2.3%
O=C(NCCCn1ccnc1)c1cc(C2CC2)on1	-4%	0	8%	-1.1%
COc1ccc(NC(=O)O/N=C/c2ccc(N(C)C)cc2)cc1	-31%	/	-26%	0.7%
COc1cc(CN2CCN(S(=O)(=O)c3ccc(NC(C)=O)cc3)CC2)cc(OC)c1O	0%	4	5%	2.9%
CCCCNC(=O)c1ccc(NS(=O)(=O)c2ccc3[nH]c(=O)[nH]c3c2)cc1	1%	/	-13%	0.7%
CCC(C)(C)NC(=O)C(c1cccn1C)N(C(=O)Cn1nnc2ccccc21)c1ccc(OC)cc1 (stereo not given)	-4%	0	9%	-4.0%
CCCN1Cc2cccc(C(=O)N3CCN(c4ccc(F)cc4)CC3)c2C1=O	-3%	0	-1%	-0.7%
COc1ccc(CNC(=O)c2noc(C)c2[N+](=O)[O-])cc1	4%	-2[21.1 µM]	-2%	0.9%
CC1CCCC(NC(=O)COC(=O)c2ccccc2Sc2ccccc2C#N)C1C (stereo not given)	-5%	8	5%	5.4%
COc1ccc(CNC(=O)COC(=O)c2cccc(S(=O)(=O)N3CCOCC3)c2)cc1	/	/	-1%	-0.9%
CCNc1ncnc2c1cnn2C1CCCCO1 (stereo not given)	/	/	9%	2.6%
COc1ccccc1N1C(=O)[C@@H]2[C@H](C1=O)[C@H](C(=O)c1ccc(OC(C)=O)cc1)N1N=CC=C[C@@H]21	-3%	2	-4%	6.9%
Cc1cc(F)ccc1NCc1ccncc1	-6%	-12	6%	-4.3%
CC(C)C(NS(=O)(=O)c1cccc2nsnc12)C(=O)NCc1ccc2c(c1)OCO2 (stereo not given)	-2%	6	7%	-3.9%
O=C(NCCCN1CCCC1)c1ccc2c(Cl)c3c(nc2c1)CCCC3	14%	-5	3%	4.4%
COc1ccccc1NC(=O)C(=O)Nc1ccc2c(c1)N(C(=O)C1CC1)CCC2	/	/	-2%	-6.4%
CCCCNC(=O)CSc1nc2cc3c(cc2c(=O)n1CCCC(=O)NCCc1ccc(OC)c(OC)c1)OCO3	6%&3%	-1	0%	-1.1%
COC(=O)Cc1cc(=O)n2[nH]c(C)c(-c3ccccc3)c2n1	-1%	1	?	3.3%
CC(C)NC(=O)c1ccc(NC(=O)CC2SC(N3CCCCC3)=NC2=O)cc1 (stereo not given)	/	/	-25%	0.7%
Cc1cccc2cc3c(NC(=O)C(C)C)nn(C)c3nc12	6%	6	?	?
COc1ccc(-c2ocnc2C(=O)N2CCN(C(c3ccccc3)c3ccccc3)CC2)cc1	7%	-14	-14%	?
Cc1ccc(C(O)Cn2cc([N+](=O)[O-])nc2C)cc1 (stereo not given)	4%	-8	15%	5.0%
CCN1/C(=C\c2ccc3ccccc3[n+]2CC)Sc2cc(C)ccc21	?	-1	20%	?
O=C(c1cccc([N+](=O)[O-])c1)N(c1ccccn1)c1ccccn1	-9%	2	-14%	-0.2%
O=C(Cn1cnc([N+](=O)[O-])n1)N/N=C/c1cccc2ccccc12	-3%	2	-5%	0.1%
Cc1[nH]n2c(=O)cc(C(C)(C)C)nc2c1-c1ccccc1	24%	-6	12%	4.7%
COc1ccc(-c2cccc(NS(=O)(=O)c3cc([N+](=O)[O-])ccc3C)c2)nn1	/	/	0%	1.4%
CCN(CC)S(=O)(=O)c1ccc(N2CCOCC2)c(NS(=O)(=O)c2ccc(C(C)C)cc2)c1	-2%	-1	-7%	-1.8%
COc1ccc(-c2noc(COc3ccc4ccccc4c3Br)n2)cc1OC	-2%	3	27%	-0.3%
CCOC(=O)c1sc(NC(=O)Nc2ccccc2F)nc1C	-23%	1	0%	-2.7%
O=C(/C=C/c1ccco1)Oc1cccc2cccnc12	-1%	4	0%	-0.1%
O=C(COc1ccc(Cl)cc1Cl)Nc1ccc(CN2CCOCC2)cc1	9%	/	11%	1.5%
Cc1nc2ccccn2c1C(=O)NC1CCCCC1	-7%	5	5%	1.9%
CC(C)OCCCNC(=O)c1ccc(NC(=O)C2CCCO2)cc1 (stereo not given)	-1%	3	-8%	-1.0%
COc1ccc(NC(=O)CSc2nnc(Cn3c(=O)sc4ccccc43)n2C)c(OC)c1	-2%	-4	21%	0.8%
COc1ccccc1NC1CCCCC1NS(=O)(=O)c1ccc(C)cc1 (stereo not given)	3%	/	-23%	-6.2%
CC(C)(C)c1ccc(/C=N/NC(=O)C(=O)NCCCN2CCOCC2)cc1	-4%	0	11%	1.0%
CCN1CCCC1CNC(=O)c1cc(S(=O)(=O)CC)c(N)cc1OC (stereo not given)	0%&-1%	-4&2&4	/	/
CC(NC(=S)N1CCN(c2ccccc2)CC1)c1ccccc1 (stereo not given)	3%	7	19%	-3.3%
CCCCN(C(=O)CSCc1ccc(C)cc1)c1c(N)n(CCC)c(=O)[nH]c1=O	0%	/	0%	-1.6%
COc1ccc(NC(=O)CN2C(=O)NC3(CCCc4ccccc43)C2=O)c(OC)c1 (stereo not given)	/	/	1%	1.0%
Cc1ccc(-c2sc(-c3cccnc3)nc2CC(=O)O)cc1	0%	2	8%	-3.1%
COc1ccc(-c2csc3ncnc(N4CCN(S(=O)(=O)c5ccc(Cl)s5)CC4)c23)cc1	/	/	-15%	0.2%
COc1ccc(C(C(=O)NC2CCCC2)N(C(=O)c2ccoc2C)c2cc(C)cc(C)c2)cc1 (stereo not given)	0%	0	-2%	0.3%
CC(C)CNC(=O)Nc1ccc(F)c(Cl)c1	-27%	5	13%	0.8%
Cc1cc2nc3n(c2cc1C)CC1CC(C(=O)NCCc2cccs2)N(C)C31 (stereo not given)	1%	1	21%	4.2%
COc1cc(OC)c(NC(=O)Nc2ccc(OC)c(OC)c2)cc1Cl	-17%	-22	-8%	-4.1%
COc1ccc(C(=O)NCC(=O)Nc2ccc(F)cc2)cc1OC	-2%	-5	2%	-5.8%
CSCCCNC(=O)c1ccc(OC2CCN(CCc3ccccc3)CC2)cc1	-40%	-12	0%	-3.4%
Cc1c(Cl)c([N+](=O)[O-])nn1CCCC(=O)Nc1ccc(Cl)cc1Cl	-11%	3	-18%	8.0%
